# TRPML1 ag = qHTS for Agonists of the Human Mucolipin Transient Receptor Potential 1 (TRPML1). Mucolipin-1 (Homo sapiens), Q9GZU1. TRPML1-expressing cells, Ca2+ dye fluorescence, FDSS; host cell line not named in the record; reference of the full effect not given here. activation, % (concentration not given with the values). actives 0.12% (n = 410,000). AID 624414, 2012; in the data active = activation above about 50%; inconclusive = about 30% to 50%; inactive = below about 30%; also: 0% is about no effect; the text of the record puts the active cut at 80%
# Target sequence (Q9GZU1 whole entry, looked up): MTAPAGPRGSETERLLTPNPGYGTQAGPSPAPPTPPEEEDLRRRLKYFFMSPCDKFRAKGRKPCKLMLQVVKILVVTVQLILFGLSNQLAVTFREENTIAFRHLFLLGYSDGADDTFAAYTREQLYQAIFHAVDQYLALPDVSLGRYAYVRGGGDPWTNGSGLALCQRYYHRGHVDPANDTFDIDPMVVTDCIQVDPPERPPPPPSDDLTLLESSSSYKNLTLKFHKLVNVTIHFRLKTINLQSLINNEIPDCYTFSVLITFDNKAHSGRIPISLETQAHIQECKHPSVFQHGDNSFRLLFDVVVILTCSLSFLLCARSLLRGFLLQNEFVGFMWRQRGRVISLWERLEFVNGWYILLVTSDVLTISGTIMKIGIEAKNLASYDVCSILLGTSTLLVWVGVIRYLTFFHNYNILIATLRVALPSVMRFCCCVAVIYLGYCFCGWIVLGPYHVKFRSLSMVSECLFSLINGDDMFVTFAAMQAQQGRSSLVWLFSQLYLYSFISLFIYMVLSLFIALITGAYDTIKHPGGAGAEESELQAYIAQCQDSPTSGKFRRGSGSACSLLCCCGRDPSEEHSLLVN
#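 TRPML1-DL cells, Tet-induced overnight (~16 h, 37 degrees C), loaded 45-90 min at room temperature with Ca8 no-wash calcium dye plus quencher. FDSS fluorescence: 10 s baseline, compound pin-transfer, 110 s agonist read, then EC80 54-4 (4uM final) and 110 s antagonist read.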
# TRPML1 inh = qHTS for Inhibitors of the Human Mucolipin Transient Receptor Potential 1 (TRPML1). Mucolipin-1 (Homo sapiens), Q9GZU1. TRPML1-inducible cells, Ca2+ dye fluorescence, FDSS; stronger effect = lower value; inhibition of EC80 agonist-evoked calcium signal. activity change, negative = inhibition, % (concentration not given with the values). actives 0.02% (n = 390,000). AID 624415, 2012; in the data active means activity change below about -50%; inconclusive means about -30% to -50%; inactive means above about -30%;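 also: stimulus is agonist 54-4 at its EC80 concentration; % is scaled to controls: 0 for no effect and ±100 for the full control effect; compound concentration not given in the record; the text of the record puts the active cut at -80%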
#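 Tet-induced TRPML1-DL cells loaded with Ca8 no-wash calcium dye were read kinetically on FDSS. Compound addition was followed by EC80 agonist 54-4 (4 uM final); inhibition was read over 110 s.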
# gsp antagonist = qHTS for Antagonists of gsp, the Etiologic Mutation Responsible for Fibrous Dysplasia/McCune-Albright Syndrome: qHTS; Potency, µM (doses to about 76.9 µM), without a hit: at the top dose activity change, negative = inhibition, actives largely listed as inhibitors; actives 0.4% (n = 340,000); gsp-mutant cells, cAMP HTRF, 30 min; control for the full effect not named in the record; active = falling curve of any shape with a large fitted effect; inconclusive = falling curve, mostly with a smaller effect; inactive = flat or rising curve; cell line not stated here;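 also: intracellular cAMP measured with PDE inhibitor Ro 20-1724 present during compound exposure; potency is read from the fitted curve at half-maximal effect; % is scaled to controls: 0 for no effect and ±100 for the full control effect; nearly all actives have a fitted effect of over 65% in size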
#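 Measurement of cellular cAMP by homogeneous time-resolved fluorescence following a 30 min compound exposure at 37C. The PDE inhibitor […] was present throughout; the assay buffer was DPBS with 0.05% BSA and 0.005% Tween 20.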
# Menin-MLL FL inh = qHTS Assay for Inhibitors Targeting the Menin-MLL Interaction in MLL Related Leukemias: Competition With Fluorescein Labeled MLL-derived Peptide. FP activity change, % at 61.4 µM. Fluorescence polarization, fluorescein-MLL peptide displacement from menin. 290,000 tested, under 10 active; inconclusive = falling polarisation curve, or a change in total fluorescence; inactive = total fluorescence flat and polarisation flat or rising; no compound was filed as active; the % refers to the polarisation; negative = inhibition;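 also: % of control where 0% means no effect; inhibitors lower the polarisation; unlabelled MLL peptide was the positive control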
# ClpP mod = qHTS Assay for Activators of ClpP. ATP-dependent Clp protease proteolytic subunit (Bacillus subtilis (strain 168)), P80244. purified B. subtilis ClpP, FRET peptide cleavage, 20 min. Potency, µM (doses to about 57.5 µM), inactives show at the highest dose activity change, negative = active. actives 1.9% (n = 340,000); active = well fitted falling curve with a large enough effect; inconclusive = small, poorly fitted or top-dose-only effect; inactive = no such curve, though single readings can be large or run the other way; also: potency is read from the fitted curve at half-maximal effect; the source files actives as falling curves though it sought activators and does not explain the sign; nearly all actives have a fitted effect of over 65% in size; many hits overshoot -100%
# Target sequence (P80244 whole entry, looked up): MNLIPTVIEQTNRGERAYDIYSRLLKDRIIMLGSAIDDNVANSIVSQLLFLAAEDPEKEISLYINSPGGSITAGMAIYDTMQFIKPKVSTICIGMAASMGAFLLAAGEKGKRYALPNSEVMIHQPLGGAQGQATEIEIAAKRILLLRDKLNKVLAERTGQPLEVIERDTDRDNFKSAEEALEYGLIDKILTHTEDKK
#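 ClpP 10 microg/mL final, pH 8 Tris/KCl buffer with BSA, glycerol, Tween-20; compound pinned in; FRET-FV substrate; RT 20 min; Ex320/Em430; ΔFRET vs ADEP 5.8 microM, DMSO, no enzyme.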
# gsp agonist = qHTS for Agonist of gsp, the Etiologic Mutation Responsible for Fibrous Dysplasia/McCune-Albright Syndrome: qHTS. gsp mutant cells, cAMP HTRF, 30 min; control for the full effect not named in the record. Potency, µM (highest dose often 76.9 µM), without a hit: at the top dose activation (cAMP increase), usual class: activators. actives 0.13% (n = 340,000); active = well fitted activation curve with a large enough effect; inconclusive = small, poorly fitted or top-dose-only effect, or another doubt; inactive = no such curve, though single readings can be large or run the other way; cell line not stated here;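 also: phosphodiesterase inhibitor Ro 20-1724 added with compounds to block cAMP breakdown; potency is read from the fitted curve at half-maximal effect; nearly all actives have a fitted effect of over 60% in size; about a fifth of the inactives were tested at one dose only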
#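 Cells in DMEM/10% FBS with G418 were pretreated with compounds in DMSO plus […] (300 uM stock) for 30 min at 37C. cAMP was measured by HTRF (cAMP-d2 plus anti-cAMP antibody-K) after 30 min at room temperature.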
# An asterisk follows results filed as active; ? = inconclusive; . = no result given; & = joins results of further samples; [ ] = remark or other dose.
SMILES	TRPML1 ag	TRPML1 inh	gsp antagonist	Menin-MLL FL inh	ClpP mod	gsp agonist
CCC1=NN(C(=O)CCc2ccccc2O)C(O)(C(F)(F)F)C1 (stereo unspecified)	1.3	31	1%	2.3	-2.0%	9%
COc1c(OC)c(O)c2c(=O)c(O)c(-c3ccccc3)oc2c1OC	2.0	41	-7%	0.8	0.2%	?
CC(C)c1ccccc1N1CC(C(=O)O)CC1=O (stereo unspecified)	-0.4	-11	16%	1.9	-2.2%	-16%
CC(=O)c1ccc(NC(=O)C2CCN(S(=O)(=O)c3ccc4c(c3)CCCN4C(=O)C3CCC3)CC2)cc1	-0.8	-9	.	.	1.5%	.
CCS(=O)(=O)c1ccc(Sc2nncn2C)c([N+](=O)[O-])c1	-0.1	-8	2%	1.5	.	18%[15.4 µM]
Cc1cc(C)c(S(=O)(=O)NCC2CCC(C(=O)NCCCN3CCOCC3)CC2)c(C)c1 (stereo unspecified)	-0.1	-10	4%	-5.8	-2.5%	8%
CC(OC(=O)C1CCN(S(=O)(=O)c2ccc(F)cc2)CC1)C(=O)NC1CCCCC1C (stereo unspecified)	1.4	7	-8%	.	-5.7%	8%
NC(Cc1c[nH]c2ccccc12)C(=O)NCc1ccco1 (stereo unspecified)	-0.4	6	3%	4.4	-1.1%	1%
O=C1CCC([N+](=O)[O-])C(c2ccc(F)c(Br)c2)N1 (stereo unspecified)	0.4	12	7%	1.9	.	-18%
CC(OC(=O)c1cccc(S(=O)(=O)N2CCOCC2)c1)C(=O)NCC1CCCCC1 (stereo unspecified)	-0.5	11	.	.	1.7%	-14%
CCOc1ccc(/C=C\C(C)=N\O)cc1	-0.3	-4	-2%	4.2	0.5%	-30%
Cc1cc(-c2ccc(C)c(S(=O)(=O)NCCCN3CCN(c4ccccc4)CC3)c2)on1	1.3	7	-25%	.	0.9%	-14%
COc1ccc(OC)c(NC(=O)c2ccc3c(SCC(=O)O)c4c(nc3c2)CCCC4)c1	-0.3	1	.	.	0.1%	.
COc1cccc(NC(=O)CCSc2ccc(C)cc2)c1	1.9	-21	3%	2.4	-4.3%	0%
COc1ccc(NC(=O)c2cccc(S(=O)(=O)N3CCCCCC3)c2)cc1	0.2	5	-17%	-5.3	.	-2%[15.4 µM]
COc1ccc(Cl)cc1NC(=O)CNC(c1ccccc1)c1ccccc1	3.6	83	-4%	0.7	.	8%
CCCCNC(=O)C1CCN(C/C(C)=C/c2ccccc2)CC1	-1.1	20	8%	2.9	-0.7%	?
NS(=O)(=O)c1cccn1-c1ncc(C(F)(F)F)cc1Cl	6.8	-5	-6%	0.2	-0.8%	0%
COC(=O)c1sccc1NC(=S)N1CCC(C(N)=O)CC1	1.1	-15	5%	-0.7	-0.3%	-10%
CCc1cccc(CC)c1NC(=O)CN1C(=O)C(=O)c2ccccc21	-0.5	5	.	.	-1.9%	.
COc1ccccc1C(=O)Nc1nc2ccc(S(C)(=O)=O)cc2s1	-0.5	10	5%	1.1	?	?
CCOC(=O)CSC(CC)C(=O)Nc1nnc(CC)s1 (stereo unspecified)	0.1	-6	6%	3.3	1.4%	14%
O=C(OCc1ccccc1)C1CCCN1C(=O)c1cccs1 (stereo unspecified)	0.6	10	-4%	2.6	-1.0%	0%
CC(=O)N(Cc1ccco1)C1(C(=O)NC2CCCC2)CCCCC1	-0.8	12	3%	4.7	1.6%	-46%[inhibitor]

# Full records from above. Screens in order: TRPML1 ag	TRPML1 inh	gsp antagonist	Menin-MLL FL inh	ClpP mod	gsp agonist
# NS(=O)(=O)c1cccn1-c1ncc(C(F)(F)F)cc1Cl is listed as 6.8	-5	-6%	0.2	-0.8%	0%
# COc1ccc(Cl)cc1NC(=O)CNC(c1ccccc1)c1ccccc1 is listed as 3.6	83	-4%	0.7	.	8%
# CCOC(=O)CSC(CC)C(=O)Nc1nnc(CC)s1 (stereo unspecified) is listed as 0.1	-6	6%	3.3	1.4%	14%

# Going on with the list.
SMILES	TRPML1 ag	TRPML1 inh	gsp antagonist	Menin-MLL FL inh	ClpP mod	gsp agonist
O=C(C1CC1(c1ccccc1)c1ccccc1)N1CCOCC1 (stereo unspecified)	0.2	-5	9%	1.0	-0.8%	13%
CCCn1c(SCC(=O)Nc2cc(S(=O)(=O)N3CCOCC3)ccc2Cl)n[nH]c1=O	0.5	7	-2%	3.4	-1.4%	6%
CCCn1c(SCC(=O)Nc2ccc(F)c(Cl)c2)nc(O)cc1=O	-0.4	-5	3%	.	-2.0%	-8%
CC(C)n1nnnc1SCC(=O)N(C)C1CCS(=O)(=O)C1 (stereo unspecified)	-0.3	-1	9%	.	.	16%
Fc1ccc(-c2csc3nnc(SCc4cccnc4)n23)cc1	0.5	1	11%	-0.2	0.2%	?
CCc1cccc(NC(=O)c2ccc3c(=O)n4nc(Nc5ccccc5OC)sc4nc3c2)c1	1.5	-2	.	.	-2.0%	.
CN(c1ccccc1)S(=O)(=O)c1ccc(C(=O)N2CCCC(C(F)(F)F)C2)cc1 (stereo unspecified)	0.0	-3	2%	2.1	-1.4%	-7%
CC(C)c1nnc(NC(=O)CSc2nc3ccccc3s2)s1	0.3	1	-7%	1.8	-0.6%	-32%[inhibitor]
Cc1cc(NC(=O)CN2CCc3ccccc3C2)nc2c1c(=O)oc1ccccc12	-0.4	-8	-3%	1.4	-22%	28%
COc1ccc(CNS(=O)(=O)c2ccc3c(c2)N(C(C)=O)CC(C)S3)cc1 (stereo unspecified)	0.1	-1	-12%	.	.	11%
Cc1ccc(C(=O)Nc2ccc(N3CCOCC3)cc2)cc1S(=O)(=O)N1CCCCC1	2.4	11	-24%	.	0.5%	?
COCCNC(=O)c1c(N)n(CCC2=CCCCC2)c2nc3ccccc3nc12	-0.1	1	-3%	?	-0.5%	-4%[15.4 µM]

# More results:
molecule | TRPML1 ag | TRPML1 inh | gsp antagonist | Menin-MLL FL inh | ClpP mod | gsp agonist
CCOC(=O)c1c(NC(=O)CSc2nnc(C)c(=O)[nH]2)sc(C)c1-c1ccc(C)cc1 | 0.1 | -15 | ? | 0.1 | . | ?
Cc1ccc(N(CC(=O)NN=C2CCN(C)CC2)S(=O)(=O)c2ccc(C)cc2)cc1 | -0.9 | 11 | 12% | -2.2 | . | -10%[15.4 µM]
O=C(NCc1cccnc1)c1cc(-c2cccs2)on1 | 1.4 | -23 | 0% | 2.5 | -13% | 0%
CCS(=O)(=O)c1ccc2c(c1)N(S(C)(=O)=O)CC(C(=O)NN)O2 (stereo unspecified) | 1.0 | 33 | -9% | 2.3 | . | 4%[15.4 µM]
Cc1ccc(N2C(=O)CC(c3c[nH]c4ccccc34)C2=O)cc1 (stereo unspecified) | 1.7 | 13 | -8% | -0.6 | . | -7%
CCCCN1C(=O)C(C(=O)OCc2ccccc2)CC2=C1CCCC2=O (stereo unspecified) | 1.9 | -2 | 0% | . | -2.3% | .
CCc1ccc(N2CC(C(=O)NNC(=O)c3ccc(F)cc3)CC2=O)cc1 (stereo unspecified) | -1.0 | -8 | 1% | . | . | 14%[15.4 µM]
COc1cccc(N=c2oc3ccccc3cc2-c2nc3ccccc3[nH]2)c1 | 1.3 | 5 | -11% | 0.9 | 1.4% | -18%
CCC1CCCCN1CC(=O)c1c(C)[nH]c2ccccc12 (stereo unspecified) | -0.4 | -7 | 4% | 2.5 | -8.4% | -37%[inhibitor]
CCOc1ccccc1NC(=O)c1ccc2c(c1)CCN2S(=O)(=O)c1ccc(C)cc1 | -0.4 | 75 | . | . | 1.0% | .
Cc1ccc(NC(=O)CC2S/C(=N/N=C/C=C/c3ccccc3)NC2=O)cc1Cl (stereo unspecified) | 0.8 | 14 | 11% | 1.5 | -2.4% | -3%
CCOc1ccc(Nc2c3c(nc4nncn24)CCC3)cc1 | -0.5 | 4 | . | . | 0.5% | .
CC1CN(Cc2nc3c(c(=O)n(C)c(=O)n3C)n2CC(=O)c2ccccc2)CC(C)O1 (stereo unspecified) | 0.7 | 30 | -16% | -1.1 | -1.5% | -8%
Cc1c(C(=O)N2CCOCC2)c(S(=O)(=O)Nc2ccc(F)cc2)c(C)n1C | 0.8 | -16 | 15% | . | -1.6% | 2%
CCc1ccc2c(c1)c(=O)c(S(=O)(=O)c1ccc(F)cc1)cn2CC(=O)Nc1ccccc1OC | -0.5 | -4 | . | . | -6.1% | .
CCc1ccc2oc(-c3cc(N)ccc3O)nc2c1 | 1.4 | -13 | 3% | -1.1 | 1.5% | 10%
CC1CCCCN1C(=O)COc1ccc(NC(=O)c2ccco2)cc1 (stereo unspecified) | -0.6 | -16 | 3% | 1.9 | -1.3% | -1%
COc1ccc(N2C(=O)CSC23C(=O)N(CC(=O)Nc2ccccc2F)c2ccccc23)cc1 (stereo unspecified) | 3.5 | -23 | . | . | -3.1% | .
O=C(CSc1ccc(Br)c2cccc(Cl)c12)Nc1ccc(S(=O)(=O)Nc2nccs2)cc1 | 0.0 | -7 | -13% | 8.9 | . | ?
CCOc1ccccc1C(c1c(C)n(C)n(-c2ccccc2)c1=O)c1c(C)n(C)n(-c2ccccc2)c1=O | 0.0 | -6 | -11% | -2.7 | -0.8% | 4%
O=c1cc(-c2cccc(Cl)c2)oc2cccc(O)c12 | 1.2&1.2 | 37&2 | 0% | 0.3&-0.2 | -2.9% | .
Cc1ccc(N(C)S(=O)(=O)c2ccc(-c3cnc(C4CC4)o3)cc2)cc1 | 6.9&-0.1 | 41&-8 | 7% | . | -1.3%&-4.3% | -45%[inhibitor]
CC(OC(=O)[C@@H](NC(=O)c1ccco1)C(C)C)C(=O)Nc1ncc(Cl)cc1Cl (stereo partly specified) | -0.3 | -16 | 12% | . | 1.6% | -9%
C=CCNc1nnc(Sc2ncccc2[N+](=O)[O-])s1 | -0.2 | 22 | . | 6.9 | . | -1%[15.4 µM]
O=C(CCCn1cncn1)N1CCCC(N2CCN(c3ccc(F)cc3)CC2)C1 (stereo unspecified) | 0.3 | -4 | 1% | . | -0.7% | -17%

# Source: PubChem
